Bioassay records: PubChem, National Center for Advancing Translational Sciences (NCATS)
SARS PLpro yeast = blocks SARS-CoV papain-like protease in a yeast assay; Potency, µM (titrated, usually from 32.9 µM), inactives show at the highest dose activity, positive = growth rescue; S. cerevisiae expressing SARS-CoV PLpro, growth rescue; control for the full effect not named in the record; hit rate 0.19% among 330,000; also: 0% is about no effect; nearly all actives have a fitted effect of over 55% in size; growth read by luminescence after 48 h
2A StopGo = FMDV 2A StopGo reporter, luciferase signal; human cells with a luciferase reporter of 2A StopGo recoding; control for the full effect not named in the record; hit rate 1.2% among 410,000; Potency, µM (doses to about 57.9 µM), inactives show at the highest dose signal change, negative = less light; active = well fitted falling curve with a large enough effect; inconclusive = small, poorly fitted or top-dose-only effect; inactive = no such curve, though single readings can be large or run the other way; tested in HEK293T cells; also: % is scaled to controls: 0 for no effect and ±100 for the full control effect; nearly all actives have a fitted effect of over 45% in size; luciferase light after 4 h
Cruzain Triton = blocks cruzain activity in presence of Triton detergent | P25779 | purified cruzain, Z-FR-AMC fluorescence, 0.01% Triton | Potency, µM, without a hit: max response, negative = inhibition, hits mostly inhibitors | hit rate 0.43% among 200,000; active = well fitted curve in the direction sought with a large enough effect; inconclusive = small, poorly fitted or top-dose-only effect, or another doubt; inactive = no such curve, though single readings can be large; an effect the other way counts as inactive or inconclusive;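 also: plate controls were neutral wells for no effect and buffer without enzyme for full effect; nearly all actives have a fitted effect of over 40% in size; top concentration of the series not given in the record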
Target sequence (P25779 123-467 limits assumed): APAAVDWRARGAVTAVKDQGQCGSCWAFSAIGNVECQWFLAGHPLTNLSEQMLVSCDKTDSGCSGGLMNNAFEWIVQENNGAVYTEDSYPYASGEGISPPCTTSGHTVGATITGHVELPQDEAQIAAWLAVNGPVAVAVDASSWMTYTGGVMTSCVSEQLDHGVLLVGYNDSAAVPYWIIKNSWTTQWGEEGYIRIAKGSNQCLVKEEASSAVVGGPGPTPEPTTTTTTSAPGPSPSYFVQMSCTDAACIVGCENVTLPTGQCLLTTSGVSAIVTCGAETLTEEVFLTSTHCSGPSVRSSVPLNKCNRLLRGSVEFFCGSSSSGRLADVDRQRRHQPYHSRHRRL
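Sodium acetate buffer (100 mM, pH 5.5) containing 5 mM DTT and 0.01% Triton X-100 hosted 1.5 nM cruzain and test compound for 15 min at room temperature. Cleavage of 2 uM Z-FR-AMC was then tracked by fluorescence.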
RE007 growth inh = less growth of the S. pombe RE007 Vpr strain | hit rate 0.21% among 360,000 | Potency, µM (titrated, usually from 92.2 µM), for inactives: at the highest dose activity change, negative = less growth | S. pombe RE007 Vpr strain, BacTiter-Glo ATP luminescence, 24 h; control for the full effect not named in the record | AID 651644; active = well fitted falling curve with a large enough effect; inconclusive = small, poorly fitted or top-dose-only effect; inactive = no such curve, though single readings can be large or run the other way;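 also: % is scaled to controls: 0 for no effect and ±100 for the full control effect; nearly all actives have a fitted effect of over 50% in size; the assay follows cell death caused by Vpr and the record does not say whether a fall means rescue or toxicity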
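Fission yeast strain RE007, carrying one chromosomally integrated HIV-1 vpr copy, was seeded at OD 0.01 in PMG+AL medium with 23 nL pinned compound. After 24 h at 30 °C and 99% humidity, viability was read by BacTiter-Glo luminescence.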
NS1 function inh = inhibitors of influenza NS1 protein function | S. cerevisiae slowed by influenza A NS1, growth recovery by OD600 | AID 2326 | Potency, µM (top dose mostly 46.1 µM), without a hit: at the top dose activity, positive = more growth | hit rate 0.4% among 270,000; also: actives are rising curves; nearly all actives have a fitted effect of over 50% in size
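Growth recovery, yeast-based: influenza A NS1 expressed in S. cerevisiae causes slow growth, and suppressors are detected by OD600. The parent strain without NS1 is used as positive control.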
Marburg entry inh = blocks Marburg virus binding to or entry into cells. Marburg virus pseudotyped entry inhibition, cell reporter; control for the full effect not named in the record; about a third of the inactives were read at about 46 µM. Potency, µM (series often up to 37.8 µM), for the others: top-dose activity change, negative = inhibition, usual class: inhibitors. hit rate 1.8% among 300,000. AID 540276; active = well fitted inhibition curve with a large enough effect; inconclusive = small, poorly fitted or top-dose-only effect, or effect the other way; inactive = flat fitted curve, though single readings scatter; tested in HEK293 cells; about a fifth of its hits are not listed in these tables; also: % is scaled to controls: 0 for no effect and ±100 for the full control effect; luciferase read-out
LASV entry inh = blocks Lassa virus binding to or entry into cells; hit rate 1.2% among 300,000; Lassa virus pseudotype entry inhibition, cell reporter; control for the full effect not named in the record; Potency, µM (series often up to 37.9 µM), for the others: at the top dose activity change, negative = inhibition, usual class: inhibitors; active means well fitted inhibition curve with a large enough effect; inconclusive means small, poorly fitted or top-dose-only effect, or effect the other way; inactive means flat fitted curve, though single readings scatter; tested in HEK293 cells; also: % is scaled to controls: 0 for no effect and ±100 for the full control effect; nearly all actives have a fitted effect of over 50% in size; luciferase read-out
Cruzain inh noDet = blocks cruzain activity in detergent-free assay; purified cruzain, Z-FR-AMC fluorescence, no detergent; Potency, µM, without a hit: max response, negative = inhibition, actives largely listed as inhibitors; hit rate 2.3% among 200,000; active = well fitted curve in the direction sought with a large enough effect; inconclusive = small, poorly fitted or top-dose-only effect, or another doubt; inactive = no such curve, though single readings can be large; an effect the other way counts as inactive or inconclusive;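 also: plate controls were enzyme without inhibitor for no effect and buffer without enzyme for full effect; nearly all actives have a fitted effect of over 40% in size; top concentration of the series not given in the record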
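Detergent-free condition (0.00005% Triton X-100) in acetate buffer pH 5.5 with DTT. 1.5 nM enzyme and compound were pre-mixed 15 min, then 2 uM Z-FR-AMC substrate added; reaction progress from fluorescence change between first and third reads (60 s).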
Active calls of the source: *; ? = inconclusive; / = not tested or not shown; [ ] = another dose, or the depositor's remark. Unless noted, calls follow the shape of the dose curve; as a rule, active means well fitted rising curve with a large enough effect; inconclusive means small, poorly fitted or top-dose-only effect; inactive means no such curve, though single readings can be large or run the other way. Potency is read from the fitted curve at half-maximal effect.

Second line of a record: 2A StopGo	SARS PLpro yeast	Cruzain Triton	LASV entry inh	NS1 function inh	Marburg entry inh	RE007 growth inh	Cruzain inh noDet
O=C(N/N=C/C=C\c1ccccc1[N+](=O)[O-])c1ccncc1
    -15%	-1%	/	23%	/	-19%[46.1 µM]	14%	/
CC1=C(C(=O)Nc2ccccc2)C(c2ccc(C(=O)O)cc2)n2ncnc2N1 (stereo not drawn)
    -18%	/	-1.5%	25%[46.1 µM]	/	/	/	0%
CC(C)(C)C(=O)CNCC(=O)C(C)(C)C
    1%	-4%	/	3%	8%	0%[46.1 µM]	10%	/
Cc1ccc(CNC(=O)c2nnn(CC(=O)Nc3cc(C)ccc3C)c2N)cc1
    4%	/	-0.2%	29%[46.1 µM]	/	/	/	-12%
COc1ccccc1NC(=O)CCn1cnc2onc(-c3ccc(F)cc3)c2c1=O
    ?	/	-0.7%	5%[46.1 µM]	/	/	/	18%
CN1CCN(C2=C(NS(=O)(=O)c3ccccc3)C(=O)c3ccccc3C2=O)CC1
    -3%	5%	/	/	6%	/	-8%	/
CC1CCCN(C(=O)COC(=O)CSc2ccc(C(N)=O)cc2[N+](=O)[O-])C1 (stereo not drawn)
    -12%	8%	/	1%	/	4%[46.1 µM]	4%	/
CC(C)N(C(=O)Cn1c(SCC(=O)NCc2ccc3c(c2)OCO3)nc2ccccc21)C(C)C
    -8%	16%	-1.2%	-1%	-5%	-15%	-20%	1%
CCOC(=O)c1c(-c2ccc(OC)cc2)csc1/N=C/N(C)C
    -3%	-3%	-4.7%	7%	21%	-19%	-4%	1%
O=C(c1ccc(S(=O)(=O)N2CCCCC2)cc1)N1CCN(Cc2ccc3c(c2)OCO3)CC1
    0%	2%	-3.6%	-15%	-23%	?	1%	7%
COc1ccc(C(CNC(=O)COc2cc(C)c(Cl)c(C)c2)N2CCCCC2)cc1 (stereo not drawn)
    ?	/	-3.4%	5%[46.1 µM]	-1%	?	-4%	15%
CCC(=O)N(Cc1ccc2c(c1)OCO2)Cc1cc2cc(OC)ccc2[nH]c1=O
    ?	8%	-10%	-5%	-14%	12%	13%	-7%
COc1ccc(N2CCN(C(=O)CSc3ccc([N+](=O)[O-])cc3)CC2)cc1
    ?	0%	/	6%	/	20%[46.1 µM]	9%	/
COCCN(C)C(=O)CCc1nnc(Cc2ccc(-c3ccccc3)cc2)o1
    13%	-1%	/	/	-5%	/	17%	/
Cc1cccc(N2CCN(C(=O)c3ccccc3SCC(=O)N3CCCC3)CC2)c1C
    0%	-7%	/	?	/	?	-2%	/

(listing goes on)
Second line of a record: 2A StopGo	SARS PLpro yeast	Cruzain Triton	LASV entry inh	NS1 function inh	Marburg entry inh	RE007 growth inh	Cruzain inh noDet
CCN(c1ccccc1)S(=O)(=O)c1ccc(NC(=O)c2cc(=O)c3cc(C)ccc3o2)cc1
    ?	/	-1.8%	28%[46.1 µM]	/	16%[46.1 µM]	/	4%
Cc1cc(OCC(F)(F)C(F)(F)C(F)(F)C(F)F)nc(N)n1
    53%[activator]	5%	-4.0%	6%	7%	15%	-9%	-6%
CCOC(=O)c1cnc2c(-c3ccc(Cl)cc3)c(C)nn2c1N
    -9%	-6%	-0.9%	11%	7%	11%	-5%	-26%
CCC(C)NC(=O)C1CCN(S(=O)(=O)c2ccc(Br)s2)CC1 (stereo not drawn)
    -5%	-5%	-0.4%	-5%	-3%	11%	-22%	6%
O=C(O)COc1ccc(C=C2SC(=S)N(c3ccccc3)C2=O)cc1
    -3%	/	/	?	/	4%[46.1 µM]	-8%	/
COc1ccc(-c2noc(N3CCC(C(=O)Nc4cc(OC)ccc4OC)CC3)n2)cc1
    -26%	-2%	/	/	-3%	/	-2%	/
CCc1nnc(NC(=O)CSc2nc3c([nH]c4ccccc43)c(=O)n2-c2ccc(C)cc2)s1
    0%	/	-2.8%	-11%[46.1 µM]	/	/	/	-8%
COc1ccc(C2C(C(=O)O)CC(=O)N2c2ccc(OC)cc2)cc1 (stereo not drawn)
    0%	-2%	6.4%	2%	4%	2%[46.1 µM]	24%	-6%
Cc1ccnc(NC(=S)NC(=O)c2cncc(Br)c2)c1
    43%[activator]	-7%	-4.0%	-3%	12%	?	-25%	-14%
COc1cccc(C(=O)Oc2c(Br)cc(Br)cc2/C=N/NC(=O)c2cc(C)[nH]n2)c1
    -8%	2%	/	/	11%	/	12%	/
O=C(N/N=C/c1cccnc1)c1ccc(O)cc1
    3%	1%	/	?	5%	-2%[46.1 µM]	0%	/
CCC(C)n1c(=O)c2sccc2n2c(CCCC(=O)Nc3ccc(F)cc3)nnc12 (stereo not drawn)
    -1%	/	0.7%	-10%[46.1 µM]	/	/	/	-16%
O=C(NCC(=O)N1CCC2(CC1)NCCc1[nH]cnc12)c1ccc2ccccc2c1
    4%	-5%	/	13%[46.1 µM]	-2%	-6%[46.1 µM]	-2%	/
O=C(Cc1ccccc1F)c1ccc(O)cc1O
    18%	2%	/	-17%	-33%	-3%[46.1 µM]	3%	/
Nc1nc(SCc2ccccc2)n[nH]1
    21%	0%	/	30%[46.1 µM]	2%	-6%[46.1 µM]	1%	/

More structures
Second line of a record: 2A StopGo	SARS PLpro yeast	Cruzain Triton	LASV entry inh	NS1 function inh	Marburg entry inh	RE007 growth inh	Cruzain inh noDet
Cc1nc(NC2=NCN(Cc3ccc4c(c3)OCO4)CN2)nc2ccccc12
    /	-2%	-3.4%	/	1%	/	/	-16%
Cc1[nH]c(=O)[nH]c(=O)c1S(=O)(=O)N1CCC(C(=O)NC(C)c2ccccc2)CC1 (stereo not drawn)
    2%	-49%	0.8%	-3%	0%	16%	-7%	0%
Cc1cccc(N2CCN(C(=O)c3ccc(CS(=O)c4cccc(Cl)c4)o3)CC2)c1C (stereo not drawn)
    ?	/	-8.1%	?	/	/	/	?
CNc1nc(OC)nc(N(C#N)CN2C(=O)c3ccccc3S2(=O)=O)n1
    ?	7%	/	1%	-5%	?	-2%	/
CN(CC(=O)Nc1ccccc1Cl)C(=O)COC(=O)c1ccccc1[N+](=O)[O-]
    8%	-4%	/	18%	/	2%	-9%	/
COc1ccc(C(=O)O/N=C2\CCS(=O)(=O)c3sccc32)cc1
    63%[activator]	0%	/	/	6%	/	-4%	/
COCCNC(=O)C(c1ccc(Cl)cc1)N(Cc1ccco1)C(=O)CCC(=O)Nc1ccccn1 (stereo not drawn)
    -19%	4%	/	5%	-13%	1%[46.1 µM]	-5%	/
CCOC(=O)N1CCc2c(sc3c2c(=O)n(-c2ccc(CC)cc2)c(=O)n3CC(=O)NCC2CCCO2)C1 (stereo not drawn)
    -18%	0%	/	/	22%	/	4%	/
O=C(c1ccc2nc(Cc3ccccc3F)oc2c1)N1CCCC1
    25%	-1%	/	6.3µM*	-22%	?	-17%	/
NS(=O)(=O)c1ccc(N/N=C/c2ccccc2C(=O)O)c([N+](=O)[O-])c1
    -3%	0%	/	4%	/	-16%[46.1 µM]	-6%	/
COc1ccc(N2CCN(C(=O)CSc3nnc(CNc4ccccc4)o3)CC2)cc1
    -20%	-16%	-0.4%	6%	-4%	-12%	-4%	5%
COc1cc(Cl)c(C)cc1NC(=O)CCc1nc2cccnc2n1-c1ccccc1
    -25%	/	-3.4%	-3%[46.1 µM]	/	4%[46.1 µM]	/	-8%
COc1ccc(-n2cnnc2SCC(=O)N2CCN(S(=O)(=O)c3ccccc3)CC2)cc1
    0%	18%	-1.7%	-16%	2%	20%	-1%	0%
CC1=C(c2ccc(C)c(C)c2)S(=O)(=O)N(Cc2ccc(C(=O)NCc3cccc(C)c3)cc2)C1=O
    1%	/	-3.2%	/	/	?	/	-14%
O=C(O)CC/C(=N\NC(=O)c1ccccc1)c1cccs1
    11%	-4%	/	/	/	13%[46.1 µM]	10%	/

(next part)
Second line of a record: 2A StopGo	SARS PLpro yeast	Cruzain Triton	LASV entry inh	NS1 function inh	Marburg entry inh	RE007 growth inh	Cruzain inh noDet
N#Cc1ccccc1S(=O)(=O)N1CCN(CC(O)COc2ccccc2F)CC1 (stereo not drawn)
    -8%	2%	/	-30%	-6%	25%	-9%	/
Fc1ccccc1/C=N/Nc1ncnc2nc[nH]c12
    50%[activator]	-16%	-7.0%	16%	0%	6%	-6%	-5%
Cc1ccc(S(=O)(=O)N[C@H](C(=O)OCC(=O)NC(=O)NCc2ccco2)C(C)C)cc1
    ?	3%	/	?	/	9%[46.1 µM]	8%	/
CC(=O)c1sccc1NC(=O)CC(C)(C)CC(=O)O
    -3%	0%	/	18%	1%	-1%[46.1 µM]	16%	/
CCSc1nc(N)c(C#N)c(-c2ccco2)c1C#N
    -16%	-38%	?	16%	-20%	-29%	12%	20µM*
CCNC(=S)N1CCN(c2nc(-c3ccc(F)cc3)cs2)CC1
    ?	-5%	/	/	12%	/	-15%	/
CCOC(=O)c1cccc(NC(=O)c2cc3c(Cl)nc4ccc(C)cc4c3s2)c1
    -10%	/	6.5%	-3%[46.1 µM]	/	2%[46.1 µM]	/	-24%
CC(C)(C)C(=O)Nc1nnc(Cc2ccccc2)s1
    21%	-14%	-4.4%	-9%	-3%	2%	1%	2%
CC(C)CCNC(=O)c1ccc2c(c1)N(Cc1ccccc1F)C(=O)c1ccccc1S2=O (stereo not drawn)
    0%	/	-2.8%	?	/	-6%[46.1 µM]	/	4%
COc1ccc(-c2c(C)nn3c(N4CCN(Cc5ccccc5)CC4)cc(C)nc23)cc1OC
    ?	2%	-2.2%	/	?	/	-1%	?

Quoted at random: 2 records from the list
Second line of a record: 2A StopGo	SARS PLpro yeast	Cruzain Triton	LASV entry inh	NS1 function inh	Marburg entry inh	RE007 growth inh	Cruzain inh noDet
CCNC(=S)N1CCN(c2nc(-c3ccc(F)cc3)cs2)CC1
    ?	-5%	/	/	12%	/	-15%	/
CCOC(=O)c1cccc(NC(=O)c2cc3c(Cl)nc4ccc(C)cc4c3s2)c1
    -10%	/	6.5%	-3%[46.1 µM]	/	2%[46.1 µM]	/	-24%
